FGF22 binding = FGF22 (human) thermal shift binding; calls only at 9.99 µM; hit rate 1.5% among 340,000; recombinant FGF22 thermal shift, SYPRO orange fluorescence; percent of sucrose octasulfate shift, DMSO zero; AID 651658;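 active = melting point raised past a set limit in the mean and every replicate; three in four hits are not shown here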
Target sequence (Q9HCT0 whole entry, looked up): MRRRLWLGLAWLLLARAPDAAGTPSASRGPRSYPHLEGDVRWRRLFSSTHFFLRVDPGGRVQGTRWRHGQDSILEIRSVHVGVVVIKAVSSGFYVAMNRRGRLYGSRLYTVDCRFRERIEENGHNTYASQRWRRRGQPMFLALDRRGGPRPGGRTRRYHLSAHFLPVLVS
HNF4A DNA FP = change in binding of human HNF4 alpha to DNA. P41235. HNF4a-FITC DNA binding, fluorescence polarization, 1 h. activity change, % at 10 µM. hit rate 0.3% among 360,000; in the data active = activity change above about 30%, passing the limit was not always enough;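 also: controls were the assay level and a saturating level of protein; the project sought stronger binding though the title names inhibitors; some compounds called inactive have numbers as strong as hits; positive values seem to mean higher polarization but the record does not say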
Target sequence (P41235 whole entry, looked up): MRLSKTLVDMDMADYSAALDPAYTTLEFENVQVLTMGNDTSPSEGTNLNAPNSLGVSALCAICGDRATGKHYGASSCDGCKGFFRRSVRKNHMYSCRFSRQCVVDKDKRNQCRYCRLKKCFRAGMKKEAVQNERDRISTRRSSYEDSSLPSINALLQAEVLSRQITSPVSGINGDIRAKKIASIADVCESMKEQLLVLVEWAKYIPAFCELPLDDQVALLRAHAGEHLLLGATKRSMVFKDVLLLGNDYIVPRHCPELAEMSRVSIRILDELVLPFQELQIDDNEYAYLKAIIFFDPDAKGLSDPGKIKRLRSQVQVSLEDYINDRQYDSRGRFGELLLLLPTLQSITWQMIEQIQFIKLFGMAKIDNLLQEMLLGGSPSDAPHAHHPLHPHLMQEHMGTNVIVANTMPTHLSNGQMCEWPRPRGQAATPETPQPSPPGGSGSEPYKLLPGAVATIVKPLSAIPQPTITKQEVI
ALR inh = inhibitors of human sulfhydryl oxidase ALR; inhibition, % (test concentration not listed); AID 485317; hit rate 3.8% among 290,000; purified ALR, DTT oxidation, H2O2 HRP-luminol luminescence;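 active = mean and each replicate at 75% or more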;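 also: stock transfer was 7.5 nL into about 7.5 µL; 0% = neutral wells and 100% = wells with inactivated enzyme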
Ecoli rRNA inh = inhibitors of bacterial rRNA selective over humanized ribosomes. hit rate 1.6% among 350,000. GFP signal change (wild-type ribosome), % (test concentration not listed). E. coli WT GFP vs humanized-ribosome RFP mutants, fluorescence, 24 h; active compounds read low; DMSO median 0, no signal -100. AID 720706;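 active = significant combined selectivity score with lowered wild-type GFP, culture density cut under 30%, mutant RFP and density less affected; inactive = any of these conditions unmet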; also: one replicate is shown; some compounds called inactive have numbers as strong as hits
Beta2AR agonist = human beta-2 adrenergic receptor agonism by FAP. P07550. Am2.2-beta2AR cells, FAP receptor internalization, flow cytometry; reference of the scale not given here. response, % (concentration not given with the values). hit rate 0.43% among 340,000;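 active = response above a set limit, near 3 SD of response in nonfluorescent compounds, cut at about 42% in these data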;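 also: stock transfer was 100 nL into about 11 µL; a reference agonist was the positive control; negative values mostly stem from fluorescent compounds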
Ecoli growth = blocks Escherichia coli growth. AID 1053175. hit rate 0.21% among 330,000. OD600, 23 h; active compounds read low. OD600 absorbance (no concentration beside the values);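 active = OD600 absorbance below the run mean of sample wells minus 3.6 SD, in any replicate, cut at about 0.56 in these data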;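 also: stock transfer was 300 nL into about 60 µL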
UCH37 inh = inhibitors of human deubiquitinating enzyme UCH37 | purified proteasome/UCH37, Ub-AMC cleavage fluorescence | inhibition, % (concentration not given with the values) | hit rate 0.33% among 330,000 | AID 588478;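 active = mean of two replicates above 20%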;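 also: 0% = compound-free wells with enzyme and 100% = wells lacking proteasome; stock transfer was 100 nL into about 20 µL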
Target sequence (Q9Y5K5 whole entry, looked up): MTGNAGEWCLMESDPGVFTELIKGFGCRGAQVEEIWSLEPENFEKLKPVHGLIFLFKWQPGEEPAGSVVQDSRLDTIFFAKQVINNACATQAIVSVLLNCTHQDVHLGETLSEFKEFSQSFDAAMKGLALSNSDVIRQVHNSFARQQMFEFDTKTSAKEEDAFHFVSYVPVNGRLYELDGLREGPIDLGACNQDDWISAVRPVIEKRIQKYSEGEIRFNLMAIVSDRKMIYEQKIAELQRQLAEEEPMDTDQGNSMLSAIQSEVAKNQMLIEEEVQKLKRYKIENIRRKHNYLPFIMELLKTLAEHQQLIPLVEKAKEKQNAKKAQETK
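Signal – fluorescence, ex 355 nm, em 460 nm · System – Proteasome-bound UCH37 · Input – 0.15 nM proteasome as dispensed · Timing – 30 min preincubation with enzyme, 25 min cleavage at room temperature · Read-out basis – percent inhibition of cleavage signal versus uninhibited and no-proteasome wells · Medium – Tris-HCl pH 7.4 with ATP-MgCl2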
Ecoli rRNA inh OD600 = recorded beside Ecoli rRNA inh, whose call it bears; OD600 change, %; measured here: OD600 growth;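 optical density of the mix in the first replicate; 0 = DMSO median and -100 = no signal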
Ecoli rRNA inh RFP = recorded beside Ecoli rRNA inh, whose call it bears; RFP signal change, %; measured here: RFP humanized mutant strains;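 first replicate; 0 = DMSO median and -100 = no signal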
The depositor's hits bear a star; i = inactive; nt = no result given. Only part of the results is shown; count on the stated rates, not on these rows.

SMILES	FGF22 binding	HNF4A DNA FP	ALR inh	Ecoli rRNA inh	Ecoli rRNA inh OD600	Ecoli rRNA inh RFP	Beta2AR agonist	Ecoli growth	UCH37 inh
O=S(=O)(/N=C(/Nc1ccccn1)c1ccc(Cl)cc1)c1ccc(Cl)cc1	nt	-0.6	nt	nt	nt	nt	-7.2	0.728	-0.1
O=C(CN1CCC(N2CCCCC2)CC1)N1CCCc2ccccc21	nt	4.3	-3.3	nt	nt	nt	-4.5	0.739	4.5
O=C(CSc1cccc(C(F)(F)F)c1)Nc1ccc(N2CCOCC2)cc1	i	-2.7	11.9	14.0	8.0	0.8	-1.0	0.655	3.1
O=C(NNC(=O)c1ccc(F)cc1)C(=O)N1CCCCC1	nt	-1.3	-0.6	nt	nt	nt	-2.1	0.656	-0.2
CCn1cc(CN2CCC(n3nccc3NC(=O)c3ccccc3OC)CC2)cn1	i	0.5	-9.9	12.6	15.5	2.2	0.0	0.707	4.7
CCc1cc(=O)oc2c(C)c(OCC(=O)NCCCn3ccnc3)ccc12	i	-6.0	-1.1	-1.1	3.8	-1.6	-10.4	0.674	-10.2
CC(C)C(NC(=O)c1ccc(C(C)(C)C)cc1)C(=O)Nc1ccc(N2CCOCC2)cc1 (stereo unspecified)	i	-6.2	nt	2.8	0.4	0.0	-8.6	0.68	4.9
CC1CC(C)CN(S(=O)(=O)c2ccc(C(=O)Nc3sccc3C(N)=O)cc2)C1 (stereo unspecified)	i	1.4	4.0	3.6	-2.0	-2.1	7.8	0.742	-104.9
CN(c1ccc(C(=O)NCc2ccncc2)cc1)S(=O)(=O)c1ccc(Cl)cc1	i	4.7	-1.9	-25.5	-27.3	-1.3	-9.5	0.68	4.9
CCOC(=O)c1ccc(N2C(=O)C3CCOc4ccccc4C32)cc1 (stereo unspecified)	i	-2.6	1.3	2.5	8.3	4.5	-4.0	0.676	2.4
COc1ccc2cc3cc(C(=O)NCCc4ccc(OC)c(OC)c4)oc3nc2c1	nt	-1.9	-5.5	nt	nt	nt	20.9	0.786	-140.1
CCOc1ccccc1CNC(=O)Cn1ccc2cc(S(=O)(=O)N3CCCC3)ccc21	i	1.3	2.3	8.3	3.4	-3.1	-8.7	0.707	3.7
CC(=O)N1C[C@@H](CO)[C@@H](N(C)C(=O)c2ccco2)C[C@H]1c1ccccc1	i	-0.8	nt	24.4	18.9	2.4	nt	nt	nt
CCC1(C)NC(=O)N(CC(=O)N2CCN(c3cccc(Cl)c3)CC2)C1=O (stereo unspecified)	i	0.8	1.6	5.2	7.4	4.4	-2.7	0.653	-0.8
CCOc1ccc(CNC(=O)CCc2cn(C)c3ccccc23)cc1	i	-1.5	-4.4	0.8	-4.4	2.1	-10.6	0.683	1.6
O=C(c1cc2ccccc2o1)N1CCCC1	i	4.1	1.5	9.5	4.6	1.2	14.5	0.664	0.6
COc1ccccc1Nc1ccc([N+](=O)[O-])cn1	i	0.8	-19.9	12.1	13.2	14.0	0.0	0.695	7.1
CCC1CCCCN1C(=O)COC(=O)c1ccc(Br)o1 (stereo unspecified)	i	1.2	1.0	16.4	11.1	-0.8	-5.1	0.679	-2.8
COc1ccccc1CNCC(c1ccccc1)c1ccccc1	i	-2.8	1.9	-2.7	-5.5	-0.9	-9.9	nt	nt
Oc1cccc2cnccc12	i	4.3	99.0*	5.0	1.4	-7.5	0.5	0.655	3.0
Oc1ccc(C[C@H]2CNCCN2CCC23CC4CC(CC(C4)C2)C3)cc1	i	2.0	12.0	-55.2	-75.2	-38.3	18.1	nt	-0.6
CCCCC(=O)NC(Nc1ccc(C)cn1)(C(=O)OCC)C(F)(F)F (stereo unspecified)	nt	0.8	-3.2	nt	nt	nt	-0.9	0.713	-1.1
COc1ccc(Nc2nc(NCCO)nc(OC)n2)cc1	nt	-4.7	26.8	nt	nt	nt	6.4	0.683	1.9
CCCC(=O)Nc1ccc(C)c(O)c1	nt	1.2	nt	nt	nt	nt	2.4	0.787	1.7
OCCC1CN(Cc2nc3ccccc3s2)CCN1C1CCCCC1 (stereo unspecified)	i	-2.3	-3.1	2.5	0.2	0.4	10.0	0.716	2.8

(listing goes on)
SMILES	FGF22 binding	HNF4A DNA FP	ALR inh	Ecoli rRNA inh	Ecoli rRNA inh OD600	Ecoli rRNA inh RFP	Beta2AR agonist	Ecoli growth	UCH37 inh
CC1=NNC(=O)C1CCC(=O)N/N=C\c1cccc(Cl)c1 (stereo unspecified)	nt	3.2	25.7	1.4	2.2	-3.8	13.8	nt	nt
CC1CC(O)(Cc2ccccc2)C(C)CN1C (stereo unspecified)	nt	3.1	-12.8	nt	nt	nt	5.3	0.75	-0.9
COc1ccccc1C(=O)N1CCN=C1SCc1cccnc1	nt	2.5	96.4*	nt	nt	nt	-7.1	0.717	0.3
O=C(CNS(=O)(=O)c1ccccc1)OCc1cccc([N+](=O)[O-])c1	nt	-0.4	-7.2	nt	nt	nt	4.5	0.694	3.8
COc1ccccc1NS(=O)(=O)c1cccc(C(=O)N2CCCCCC2)c1	nt	2.6	nt	3.6	-9.1	0.8	-5.6	0.629	0.9
Cc1cccc[n+]1CC(=O)N1c2ccccc2Sc2ccccc21	i	-2.6	-1.2	13.0	14.8	-14.1	-5.0	0.699	2.3
CC(OC(=O)c1ccc(O)cc1)C(=O)Nc1nc(-c2ccccc2)cs1 (stereo unspecified)	i	1.3	nt	-48.8	-75.3	-13.6	3.8	0.672	4.4
COc1ccc(Cn2c(=O)[nH]c3cc(C(=O)NC4CCN(Cc5ccccc5)CC4)ccc32)cc1	i	5.0	-3.6	-7.0	-7.6	1.1	15.5	0.663	1.4
COc1ccc(N2CC(C(=O)N/N=C/c3ccc([N+](=O)[O-])cc3)CC2=O)cc1 (stereo unspecified)	i	-0.5	2.8	14.6	14.3	1.2	-14.8	nt	nt
CC(=O)c1ccc(OCc2cc(C(=O)N(C)Cc3ccon3)no2)cc1	i	-3.8	-6.4	-5.7	-5.2	-1.1	-3.1	0.685	-0.6
NC(=O)C1CCN(C(=O)NC2CC(=O)N(c3ccc4c(c3)OCCO4)C2)CC1 (stereo unspecified)	i	1.3	-5.3	10.7	7.2	-1.7	-4.4	0.684	2.9
CCOc1ccc(-c2csc(NC(=O)CSC3=NC(=O)CN3C(C)=O)n2)c2ccccc12	nt	-0.9	98.6*	nt	nt	nt	2.4	0.666	-10.9
CCOC(=O)C1(Cc2cccc(Cl)c2)CCCN(C(=O)c2cc(C)on2)C1 (stereo unspecified)	i	-4.3	-7.2	-14.8	-17.1	-1.4	-0.3	0.731	4.6
Cc1ccc(N(CC(=O)NCc2ccccc2)C(=O)CCC(=O)Nc2ccccn2)cc1	i	1.1	5.3	-4.5	-3.3	-1.3	3.2	0.718	-1.1
Cc1cc[n+](CC(=O)Nc2ccccc2)cc1	i	0.0	2.6	-0.4	5.6	-0.1	4.4	0.658	1.7
Cc1ccc(C)n1-c1nccc(-c2cccs2)n1	nt	3.9	61.8	nt	nt	nt	5.8	0.606	-120.5
O=C(CN1CCN(Cc2ccc(F)cc2)CC1)Nc1ccccc1F	i	-1.7	-3.9	12.6	11.4	0.8	-0.5	0.599	6.0
Cc1cccc(N(Cc2ccccc2)C(=O)c2ccc(S(C)(=O)=O)cc2)c1	i	3.4	-10.1	-6.7	1.9	0.2	1.8	0.711	1.7
O=C(O)c1cccc(Nc2ncnc3ccccc23)c1	nt	-3.0	-5.1	1.7	7.0	3.8	-9.2	0.679	3.0
N#CCn1c(C2CCCCC2)nc2ccccc2c1=O	nt	-2.6	-9.8	nt	nt	nt	-10.7	0.708	2.9
CCc1nn(CC(=O)N(C)C2CCCCC2)c(=O)c2cc3cc(C)ccc3n12	i	0.6	-2.2	12.5	15.1	3.5	0.9	0.693	-7.6
c1ccc(CN2CCC(CNc3ncnc4ccccc34)C2)cc1 (stereo unspecified)	i	-0.3	nt	-1.4	-3.1	3.9	-17.9	0.681	4.3
C=CCN(CC=C)CCOc1ccccc1F	i	-1.3	2.7	5.9	-0.4	0.1	17.4	0.671	3.9
Cc1ccc2nc(SCc3ccc([N+](=O)[O-])cc3)nc(C)c2c1	nt	-0.4	-2.4	nt	nt	nt	-13.7	0.655	2.6
CCOC(=O)CN1C(=O)N2C[C@H]3CON(C)[C@H]3C[C@H]2c2ccccc21	i	2.2	nt	9.2	11.7	2.2	nt	nt	nt

ALR inh, entries above that show a hit.
SMILES	FGF22 binding	HNF4A DNA FP	ALR inh	Ecoli rRNA inh	Ecoli rRNA inh OD600	Ecoli rRNA inh RFP	Beta2AR agonist	Ecoli growth	UCH37 inh
Oc1cccc2cnccc12	i	4.3	99.0*	5.0	1.4	-7.5	0.5	0.655	3.0
COc1ccccc1C(=O)N1CCN=C1SCc1cccnc1	nt	2.5	96.4*	nt	nt	nt	-7.1	0.717	0.3
CCOc1ccc(-c2csc(NC(=O)CSC3=NC(=O)CN3C(C)=O)n2)c2ccccc12	nt	-0.9	98.6*	nt	nt	nt	2.4	0.666	-10.9

Continued.
SMILES	FGF22 binding	HNF4A DNA FP	ALR inh	Ecoli rRNA inh	Ecoli rRNA inh OD600	Ecoli rRNA inh RFP	Beta2AR agonist	Ecoli growth	UCH37 inh
CCCCc1ccc(-c2ccc(Br)cc2)nc1	i	4.3	-5.2	-5.0	3.7	-0.8	-1.5	0.665	4.2
COc1ccc(C(CC(=O)O)NC(=O)C2CCCCC2)cc1 (stereo unspecified)	nt	-3.3	10.7	-2.9	1.9	-3.0	-5.7	0.686	-1.5
COC(=O)c1ccc(CN2[C@H](C(=O)OC)C[C@@]3(O)[C@H](O)[C@H](O)[C@H](O)C[C@@H]23)cc1	i	1.6	-12.4	-0.8	6.6	11.4	-4.3	nt	0.9
COc1cccc(SCc2noc(C(=O)NCC3CC3)c2C(=O)NCC2CC2)c1	nt	4.0	8.0	nt	nt	nt	2.7	0.703	1.1
O=C1N/C(=C/c2ccc(Br)cc2)C(O)=C1C=NCc1ccccc1	i	0.5	nt	6.8	9.9	-2.5	0.3	0.745	0.6
COc1ccc(CN(CCC#N)C(=S)NC(=O)c2ccccc2)cc1	nt	-0.2	0.6	nt	nt	nt	-3.2	0.726	2.8
COC(=O)c1ccc(CN2C(=O)C3CCCCC3C2=O)o1 (stereo unspecified)	i	1.8	-2.6	8.3	7.9	-4.6	-1.7	0.629	-1.9
CN(C)/C=C/C(=O)c1ccn(S(=O)(=O)c2ccccc2)c1	i	-0.8	-10.2	-5.3	-2.6	-1.6	0.8	0.64	12.1
CCOC(=O)C1(C)NC(c2cccs2)C2C(=O)N(c3ccc(C)cc3)C(=O)C21 (stereo unspecified)	i	4.5	-0.1	11.9	9.7	-2.5	5.5	0.635	-1.9
Nc1ncnc2c1ncn2[C@@H]1O[C@H](CNCc2ccc(-c3cc(C(F)(F)F)ccc3Cl)o2)[C@@H](O)[C@H]1O	i	-2.5	nt	-20.9	-49.0	2.3	-8.6	0.663	0.9
COc1ccc(CNC(=O)c2ccc(N(C)S(=O)(=O)c3ccc(C)cc3)cc2)cc1	i	0.7	5.5	-11.5	-23.6	2.3	1.8	0.709	3.5
COc1cc(CNn2c(C)n[nH]c2=S)cc(Br)c1OCc1ccc(F)cc1	i	0.1	6.5	-29.2	-30.5	-6.2	-6.6	0.703	4.1
Cc1cc(C)c2c(N)c(C(=O)c3ccc(Cl)cc3)sc2n1	i	1.4	2.9	5.0	11.7	4.2	0.3	0.725	2.1
O=C(N/N=C1\CCc2ccccc21)c1ccccc1Cl	i	-3.0	-21.9	-1.2	1.1	-0.4	-0.6	nt	nt
COc1cc(SC)ccc1C(=O)N1CCN(c2ccccc2)CC1	i	-2.9	51.2	-13.2	-18.7	-4.0	2.8	0.68	3.5
COc1ccccc1Nc1ncnc2c1cnn2-c1cccc(C)c1	nt	0.8	-3.7	nt	nt	nt	-2.3	0.745	-11.2

Compound activity from PubChem BioAssay.
